Source: PubChem
Mtb RmlCD inh: M. tuberculosis RmlC/RmlD coupled enzyme inhibitors, primary screen, biochemical, compound mixtures, 384-well, from 1536-well plates; RmlC+RmlD coupled enzyme assay, percent inhibition; primary screen in compound mixtures; inhibition, % at 3.6 µM; 160,000 compounds, 0.03% hits; AID 1533, 2009; in the data active means inhibition mostly above about 34%, no sharp cut-off; only retested compounds are shown here; further: some results filed as inactive read as strong as hits
Target sequence (P9WH09 whole entry, looked up): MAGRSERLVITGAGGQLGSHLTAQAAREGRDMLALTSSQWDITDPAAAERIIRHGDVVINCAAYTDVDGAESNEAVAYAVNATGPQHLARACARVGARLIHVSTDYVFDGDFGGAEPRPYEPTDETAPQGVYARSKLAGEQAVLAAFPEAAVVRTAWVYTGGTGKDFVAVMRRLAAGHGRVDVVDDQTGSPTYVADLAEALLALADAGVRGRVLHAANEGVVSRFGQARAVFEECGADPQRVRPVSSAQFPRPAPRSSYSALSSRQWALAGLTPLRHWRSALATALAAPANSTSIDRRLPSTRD
Target sequence (P9WH11 whole entry, looked up): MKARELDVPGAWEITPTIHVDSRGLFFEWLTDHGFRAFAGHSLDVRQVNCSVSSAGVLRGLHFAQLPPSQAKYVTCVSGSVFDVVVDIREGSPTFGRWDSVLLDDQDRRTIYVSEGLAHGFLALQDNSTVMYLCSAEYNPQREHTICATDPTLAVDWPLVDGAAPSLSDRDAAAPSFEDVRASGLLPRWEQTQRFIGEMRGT
Mtb RmlCD inh retest: recorded beside Mtb RmlCD inh, whose call it bears; inhibition, %; measured here: mean retest inhibition;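 single compounds in two wells; values far above 100% likely come from compound fluorescence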
Starred values were filed as active, the others as inactive; . = no result given.

SMILES	Mtb RmlCD inh	Mtb RmlCD inh retest
Cc1cccc(OCc2nnc(SCC(=O)Nc3cccc(C(=O)N4CCOCC4)c3)o2)c1C	34	-11
O=S(=O)(/N=C(/NS(=O)(=O)c1ccccc1)c1ccccc1)c1ccccc1	47	5
O=C1CCC2CCCCC2(O)O1 (configuration not stated)	103	-22
CC(C)CN(C(=O)CN1CCN(S(=O)(=O)c2ccccc2)CC1)c1c(N)n(CC(C)C)c(=O)[nH]c1=O	33	-17
Cc1cccc(OCC(=O)Nc2ccc(S(=O)(=O)Nc3cc(C)nc(C)n3)cc2)c1	40	7
Cc1ccc(CNC(=O)c2ccc3c(c2)NC(=O)C(N2CCOCC2)S3)cc1 (configuration not stated)	94	9
O=C(NC1CCCCC1)N1CCc2ccccc2C1	66	3
Nc1nonc1-n1nnc(C(=O)N/N=C/c2ccccc2)c1CSc1ccc(Cl)cc1	35	-7
C=C(C)C1CC=C(C)/C(=N\NC(=O)CNc2cccc3ccccc23)C1 (configuration not stated)	38	0
CCNC(=S)Nc1cc(OC)c(NC(=O)c2ccco2)cc1OC	65	6
Cn1c(Cl)c(/C=N/OC(=O)c2cccc(Cl)c2)c2ccccc21	71	-5
OCc1ncc(-c2ccccc2)s1	36	-8
O=C(CSc1nc2[nH]ncc2c(=O)[nH]1)N1CCCC1	74	3
O=C(NNc1ccc(-c2csnn2)cc1)c1ccccc1C(F)(F)F	49	-19
COc1ccc(CC(=O)NNc2ncnc3c2cnn3-c2ccc(C)cc2)cc1	31	21
Cc1cc(N2CCCC2)nc(-c2ccccc2O)n1	48	-76
CCOC(=O)c1cnc2ccc(F)cc2c1Nc1ccc2c(c1)OCCO2	72	-9
Cc1ccc(/C=C/C(=O)N2CCCN(C(=O)/C=C/c3ccc(C)cc3)CC2)cc1	80	-7
CSCCCNC(=S)Nc1ccc(N2CCOCC2)cc1N1CCOCC1	94	4
O=C(Cn1cc(C(F)(F)F)cc(Cl)c1=O)NCCc1ccc(Cl)cc1Cl	44	5
CCOC(=O)c1sc(=S)n(-c2ccccc2Cl)c1C	49	-17
CCOC(=O)c1sc(Nc2nc3c(OC)cccc3s2)nc1C	74*	.
COc1ccc2cc3cc(C(=O)NCCCN4CCOCC4)oc3nc2c1	51*	120*
S=C1NCN(Cc2cccnc2)CN1Cc1ccccc1	84	-3
C=CCN1C(=O)S/C(=C/c2ccc(Sc3nc4ccccc4[nH]3)o2)C1=O	66	17
COC(=O)/C(=C/c1cccnc1)NC(=O)c1ccccc1	56	4
O=C(O)c1ccc(N2CCOCC2)c(N2C(=O)C3C4C=CC(C4)C3C2=O)c1 (configuration not stated)	76	-22
O=C(O)C1CCCN(S(=O)(=O)c2ccc(Br)s2)C1 (configuration not stated)	67	-4
CCN1CCN(c2nc3ccccc3nc2C(C#N)C(=O)OCc2ccccc2)CC1 (configuration not stated)	106	2
Cc1c(/C=N\NC(=O)c2csc3ccccc23)cnn1C	77	-11
CCN(CC(=O)Nc1ccc(C#N)c(Cl)c1)CC(=O)NC(C)(C)C	55	5
CCOC(=O)C1=C(C)NC2=C(C(=O)C(C(=O)OC)C(C)C2)C1c1ccc(OC)c(O)c1 (configuration not stated)	76	7
CC(C)c1ccccc1-n1c(SCc2cc(=O)oc3ccc4ccccc4c23)nnc1-c1cccnc1	71	-13
COc1ccc2ccccc2c1/C=N/N1C(=O)CSC1=S	32	-6
N#CC1(c2ccccc2)CCC(=O)N1Cc1ccccc1 (configuration not stated)	70	0
CCCN(CC1CC1)C(=S)Nc1ccc(Oc2ccccc2)cc1	106	1

19 compounds from above, arranged by SMILES length, lowest first:
SMILES	Mtb RmlCD inh	Mtb RmlCD inh retest
OCc1ncc(-c2ccccc2)s1	36	-8
Cc1cc(N2CCCC2)nc(-c2ccccc2O)n1	48	-76
CCOC(=O)c1sc(=S)n(-c2ccccc2Cl)c1C	49	-17
COc1ccc2ccccc2c1/C=N/N1C(=O)CSC1=S	32	-6
Cc1c(/C=N\NC(=O)c2csc3ccccc23)cnn1C	77	-11
CCOC(=O)c1sc(Nc2nc3c(OC)cccc3s2)nc1C	74*	.
O=C(CSc1nc2[nH]ncc2c(=O)[nH]1)N1CCCC1	74	3
CSCCCNC(=S)Nc1ccc(N2CCOCC2)cc1N1CCOCC1	94	4
COc1ccc2cc3cc(C(=O)NCCCN4CCOCC4)oc3nc2c1	51*	120*
O=C(NNc1ccc(-c2csnn2)cc1)c1ccccc1C(F)(F)F	49	-19
CCOC(=O)c1cnc2ccc(F)cc2c1Nc1ccc2c(c1)OCCO2	72	-9
CCN(CC(=O)Nc1ccc(C#N)c(Cl)c1)CC(=O)NC(C)(C)C	55	5
COc1ccc(CC(=O)NNc2ncnc3c2cnn3-c2ccc(C)cc2)cc1	31	21
O=C(Cn1cc(C(F)(F)F)cc(Cl)c1=O)NCCc1ccc(Cl)cc1Cl	44	5
C=CCN1C(=O)S/C(=C/c2ccc(Sc3nc4ccccc4[nH]3)o2)C1=O	66	17
O=C(O)c1ccc(N2CCOCC2)c(N2C(=O)C3C4C=CC(C4)C3C2=O)c1 (configuration not stated)	76	-22
Cc1ccc(/C=C/C(=O)N2CCCN(C(=O)/C=C/c3ccc(C)cc3)CC2)cc1	80	-7
CC(C)c1ccccc1-n1c(SCc2cc(=O)oc3ccc4ccccc4c23)nnc1-c1cccnc1	71	-13
CCOC(=O)C1=C(C)NC2=C(C(=O)C(C(=O)OC)C(C)C2)C1c1ccc(OC)c(O)c1 (configuration not stated)	76	7

Next records follow:
SMILES	Mtb RmlCD inh	Mtb RmlCD inh retest
COC(=O)c1c(C)[nH]c(C(=O)/C=C/c2ccc(C)cc2)c1C	35	20
Cc1ccc[n+](/C(C(=S)NCc2ccco2)=C(/[O-])c2ccccc2Cl)c1	37	-9
Cn1c(=O)c2c(nc(Cc3ccc(N)cc3)n2C)n(C)c1=O	33	-14
COC(=O)Nc1nnc(-c2ccco2)s1	110	-6
Cc1ccc(C(=O)N[C@H](C(=O)Nc2cc(Cl)cc(Cl)c2)C(C)C)cc1	55	-9
Cc1cc(NC(=O)CSCc2ccccc2)no1	61	-15
CCn1c(SCC(=O)Nc2cc(S(=O)(=O)N3CCOCC3)ccc2OC)nnc1-c1ccncc1	38	-10
COC(=O)c1sccc1NC(=O)C1CC(C)=C(C)CC1C(=O)O (configuration not stated)	83	-10
Cc1ccsc1/C=N/N1CCN(c2ccccn2)CC1	85	0
O=C(c1cccc(S(=O)(=O)N2CCCCC2)c1)N1CCOCC1	51	-10
COCCOC(=O)c1c(NC(=O)CNc2ccc(C)c(F)c2)sc(C(N)=O)c1C	49	2
CCOCCCNC(=O)c1ccc2c(=O)n(CCCOCC)c(=S)[nH]c2c1	70	12
COC(=O)c1scc(C)c1NC(=O)/C=C/C(=O)O	39	1
N#Cc1c(/N=C/c2ccco2)sc2c1CCCCC2	35	8
COc1ccc(/C=C/C(=O)NCCCn2ccnc2)cc1	38	2
CCCc1nc(SC)[nH]c(=O)c1C	45	7
O=C(Cn1c(CO)nc2ccccc21)Nc1ccccc1Cl	36	-14
CCOCc1nnc(NC(=O)c2ccc(NC(C)=O)cc2)s1	36	-11
O=C(CSc1ccccn1)Nc1cccc([N+](=O)[O-])c1	76	-14
O=C(Nc1cccc2ccccc12)NC1Cc2ccccc2C1	44	-22
CC1CCc2ccccc2N1C(N)=Nc1ccccc1 (configuration not stated)	59	-19
C=CCNC(=O)C(=O)N/N=C/c1ccco1	74	-6
CC(=O)c1ccc(N2CCN(C(=O)Nc3ccc(F)cc3)CC2)cc1	89	6
CCOc1ccccc1N1CCN(C(=O)CCCN2C(=O)c3cccc4cccc(c34)C2=O)CC1	37	0
CCOC(=O)COc1ccc([N+](=O)[O-])cc1	32	9
O=C(Nc1ccccc1)N1CCCC1c1cccs1 (configuration not stated)	44	-11
Cc1ccc(C(=O)Nc2ccccc2N2CCCCC2)cc1[N+](=O)[O-]	43	7
Cc1sc2ncnc(SC(C)C(=O)N3c4ccccc4Sc4ccccc43)c2c1C (configuration not stated)	61	-6
O=C(N/N=C/C1CC2CCC1C2)c1ccc2c(c1)OCO2 (configuration not stated)	42	9
COc1ccc(CCNC(=O)CSc2nc3ccccc3c3nc(CCN4CCCCC4)nn23)cc1OC	44	-5
Cc1sc2nc(CN(C(=O)NCc3ccccc3)C3CCCC3)[nH]c(=O)c2c1C	108	-19
CN1CC(=O)Nc2ccc(F)cc2C1=O	97	1
Cc1ccc(OCCOCCNC(C)(C)C)c([N+](=O)[O-])c1	63	3
S=C(N/N=C/c1ccc2ncccc2c1)Nc1ccccc1	48	-13
COc1ccc(-c2cc(CNC(=O)CN(C)Cc3ccccc3)on2)cc1	48	-2
COc1cccc(OCc2cc(/C=N/Nc3ccc(C(=O)O)cc3)ccc2OC)c1	35	-19
Cc1ccc(-c2cc(Cc3ccccc3)c(=O)[nH]n2)cc1	31	-7
CC(C)(C)CC(C)(C)NC(=O)c1ccccc1	55	-10
CCOC(=O)c1sc(NC(=O)Cc2ccc(C)cc2)nc1C	38	4
CC(C)Cn1c(N)c(C(=O)COC(=O)c2c(F)cccc2F)c(=O)n(C)c1=O	32	1
CCn1c(C)[n+](CC)c2ccc(S(=O)(=O)NC)cc21	34	-6
O=C(NCc1cccnc1)c1ccc(N2CCOCC2)c([N+](=O)[O-])c1	33	6
O=C1N/C(=N\N=C\c2cccs2)SC1Cc1ccc(Cl)cc1 (configuration not stated)	46	-17
CC(NCC(=O)Nc1cc(S(=O)(=O)N2CCCCCC2)ccc1Cl)c1ccccc1 (configuration not stated)	57	15
COc1ccc(NC(=S)NCc2cccs2)cc1OC	34	-10
CC(/C=C/C=C/c1ccccc1)=N/NC(=O)CNc1ccccc1C	60	21
COc1ccc(CNCCNC(=O)c2cccs2)cc1OC	67	-4
O=Cc1ccccc1-n1cccn1	38	-27

Full records as entered above:
CC(/C=C/C=C/c1ccccc1)=N/NC(=O)CNc1ccccc1C is listed with Mtb RmlCD inh: 60; Mtb RmlCD inh retest: 21
O=Cc1ccccc1-n1cccn1 is listed with Mtb RmlCD inh: 38; Mtb RmlCD inh retest: -27

Continued.
SMILES	Mtb RmlCD inh	Mtb RmlCD inh retest
CN1C(=O)NC(NS(=O)(=O)c2ccc(N)cc2)(C(F)(F)F)C1=O (configuration not stated)	45	6
COc1cc(/C=N/Nc2ccccn2)ccc1OCC(C)C	44	-37
CCCSc1sc(C(=O)OC)c(-c2cccs2)c1C#N	84	-33
O=C(CN1CCC(Cc2ccccc2)CC1)NC(=O)NC1CCCCC1	38	1
O=C(COC(=O)c1cc(-c2ccccc2Cl)nc2ccccc12)Nc1ncc(C(F)(F)F)cc1Cl	46	5
COc1ccc(C2(C(=O)NCc3ccco3)CCCC2)cc1OC	88	9
CCCn1c(N/N=C(C)\C=C\c2ccccc2)nc2c1c(=O)[nH]c(=O)n2C	47	23
O=S(=O)(NC1CC1)c1ccc(S(=O)(=O)N(Cc2ccccn2)C2CC2)cc1	81	-3
COc1ccc(C2=NC(CO)(CO)CO2)cc1	31	0
O=C(O)c1cn(Cc2ccccc2)c2ccccc2c1=O	64	11
C=CCN=c1scc(-c2ccco2)n1/N=C/c1ccc(O)c(O)c1O	64	-7
Cc1ccc(N/C(N)=N/c2nc(C(F)(F)F)cc(C(F)(F)F)n2)cc1	35	-6
Cc1ccc(-n2ncc(C(=O)Nc3cc(Cl)ccc3C)c2C2CCNCC2)cc1C	59	-15
COc1ccc2oc(=Nc3cc(F)ccc3F)c(C(N)=O)cc2c1	32	-6
Cc1cc(C)nc(NS(=O)(=O)c2ccc(N3Cc4ccccc4C3=O)cc2)n1	39	6
COCCNc1nc2nonc2nc1N(C)Cc1cccc2cnccc12	55	13
CN(C)c1ccc(-c2nn3c(C4CCCCC4)nnc3s2)cc1	65	-19
Cc1cccc(OP(N)(=O)Oc2cccc(C)c2C)c1C	43	15
COCCN(C(=O)c1ccco1)c1nnc(-c2ccc(F)cc2)s1	37	-4
COc1ccc(C(=O)NC(=S)Nc2cccc(NC(=O)c3ccco3)c2)cc1[N+](=O)[O-]	32	-7
O=S(=O)(NC1=NCCCCC1)c1ccc(F)cc1	40	-3
O=C(/C=C/c1ccccc1)NC(=S)Nc1ccc(CN2CCOCC2)cc1	85	-29
O=C(NC(=S)NCCc1ccc(Cl)cc1)c1ccco1	31	4
O=C1CCCCC1C(=O)c1ccccc1 (configuration not stated)	44	-7
Cc1ccc([N+](=O)[O-])c(C(=O)N/N=C/c2cccs2)c1	39	-5
CCc1cc(OCCCCNCc2ccccc2)ccc1Cl	44	-2
O=C(N/N=C/c1cccnc1)c1ccc([N+](=O)[O-])cc1	49	-7
CCOC(=O)C1CCN(C(=S)Nc2cc(C)ccc2C)CC1	46	11
Cc1cc2ccccn2c1C(=O)c1nc(NCc2ccco2)ncc1Cl	32	-15
Cc1cc(C(=O)N/N=C/c2cc(Br)cc(Br)c2OC(=O)c2ccccc2)n[nH]1	56	-7
Nc1[nH]n(-c2ccccc2)c(=O)c1N=Nc1ccc2ncsc2c1	33	-12
CC(=O)Nc1nc(Cn2nnc(-c3ccc4c(c3)OCO4)n2)nc(N(C)C)n1	57	-14
COc1ccc(-c2nc(N)nc(C(F)(F)F)c2-c2csc(C)n2)c(O)c1	49	6
Cc1sc2ncnc(NCc3ccccc3)c2c1C	36	-5
CC1=C(C(=O)OC(C)C)C(c2cccs2)NC(=S)N1 (configuration not stated)	107	-14
COc1ccc(N2CCN(C(=S)Nc3cc(C)ccc3C)CC2)cc1	78	3
CCN(CC)S(=O)(=O)c1ccc(N2CCCC2)c(NC(=O)Cc2ccc(OC)cc2)c1	55	5
Cc1ccc2nsnc2c1S(=O)(=O)N1CCCC1C(=O)O (configuration not stated)	57	-1
O=P(Nc1cccnc1)(Oc1ccccc1)Oc1ccccc1	38	-23
COc1cc(SC)ccc1C(=O)OCC(=O)NC1CC1	63	-1
Cn1c(-c2ccccc2)c(/C=N/NC(=O)c2ccc(O)cc2)c2ccccc21	78	-7
CCOC(=O)C1CCN(C(=S)Nc2cccc(C)c2C)CC1	59	-1
Cc1c(Cl)cccc1-n1c(-c2cccnc2)n[nH]c1=S	52	10
COc1ccccc1NC(=O)c1c(NC(=O)CCC(=O)O)sc2c1CCCCC2	76	-8

A portion of the library; the hit share may differ from the screen's.
